Ecoli growth – E. coli growth inhibition; Escherichia coli growth, OD600, 23 h; hits give low values; OD600 absorbance (test concentration not listed); 330,000 compounds, 0.21% hits; AID 1053175;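 active means OD600 absorbance below the run mean of sample wells minus 3.6 SD, in any replicate, cut at about 0.56 in these data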;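 further: stock transfer was 300 nL into about 60 µL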
Beta cell apopt – beta cell apoptosis inhibition; INS-1E cytokine-induced death, ATP luminescence, 48 h; percent of positive-control rescue, neutral wells zero; protection from apoptosis, % (test concentration not listed); 300,000 compounds, 0.8% hits; AID 435005;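 active means all replicates at 75% or more, or half of them and the mean; inconclusive means half reach 75% but not the mean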;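 further: 0% = cytokine-treated negative control wells and 100% = positive control rescue; higher means more ATP so stronger rescue from cytokine killing; wells of about 40 µL received 100 nL stock; the first replicate is given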
T cruzi repl – T. cruzi replication inhibition; T. cruzi beta-gal in NIH3T3, luminescence, 90 h; inhibition, % (test concentration not listed); 300,000 compounds, 1.4% hits; AID 1885;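 active means mean inhibition across valid replicates above about 55%, limit read from the data; inconclusive means mean below that limit but half or more replicates reach it; inactive means mean below it, under half of replicates reach it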;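 further: signal also drops with host cell toxicity which is not excluded here; 0% = plate median of DMSO wells and 100% = zero luminescence signal; higher percent means less beta-gal luminescence so fewer parasites; stock transfer was 50 nL into about 50 µL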
A1 inh – inhibitors of the anti-apoptotic protein A1, read as caspase activation; MEF A1-2A-BIM cells, Caspase-Glo 3/7 luminescence, 3 h; percent of clofoctol response, vehicle zero; caspase activation, % (concentration not given with the values); 330,000 compounds, 0.066% hits; AID 2462;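 active means over half of replicate activation scores above 10%, or exactly half above 10 with the replicate mean above 10; inconclusive means replicate mean below 10 yet half the replicates above 10; inactive means over half of replicates below 10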;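 further: wells of about 30 µL received 50 nL stock; many hits fall short of the cut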
FGF22 binding – FGF22 (human) thermal shift binding | recombinant FGF22 thermal shift, SYPRO orange fluorescence; percent of sucrose octasulfate shift, DMSO zero | AID 651658 | calls only at 9.99 µM | 340,000 compounds, 1.5% hits;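 active means melting point raised past a set limit in the mean and every replicate; inconclusive means no clear call; three in four hits are not shown here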
Target sequence (Q9HCT0 whole entry, looked up): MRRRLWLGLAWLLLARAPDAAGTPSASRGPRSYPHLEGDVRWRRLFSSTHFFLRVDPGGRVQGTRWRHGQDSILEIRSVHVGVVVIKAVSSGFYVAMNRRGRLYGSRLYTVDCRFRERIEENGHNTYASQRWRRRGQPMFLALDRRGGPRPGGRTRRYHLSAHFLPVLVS
Ecoli rRNA inh – inhibitors of bacterial rRNA selective over humanized ribosomes; E. coli WT GFP vs humanized-ribosome RFP mutants, fluorescence, 24 h; hits give low values; DMSO median 0, no signal -100; 350,000 compounds, 1.6% hits; GFP signal change (wild-type ribosome), % (concentration not given with the values); AID 720706;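 active means significant combined selectivity score with lowered wild-type GFP, culture density cut under 30%, mutant RFP and density less affected; inactive means any of these conditions unmet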; further: one replicate is shown; some compounds called inactive have numbers as strong as hits
UCH37 DUB inh – blocks the human deubiquitinase UCH37 | Q9Y5K5 | purified proteasome/UCH37, Ub-AMC cleavage fluorescence | inhibition, % (test concentration not listed) | 330,000 compounds, 0.33% hits | AID 588478;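 active means mean of two replicates above 20%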;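 further: 0% = compound-free wells with enzyme and 100% = wells lacking proteasome; stock transfer was 100 nL into about 20 µL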
Target sequence (Q9Y5K5 whole entry, looked up): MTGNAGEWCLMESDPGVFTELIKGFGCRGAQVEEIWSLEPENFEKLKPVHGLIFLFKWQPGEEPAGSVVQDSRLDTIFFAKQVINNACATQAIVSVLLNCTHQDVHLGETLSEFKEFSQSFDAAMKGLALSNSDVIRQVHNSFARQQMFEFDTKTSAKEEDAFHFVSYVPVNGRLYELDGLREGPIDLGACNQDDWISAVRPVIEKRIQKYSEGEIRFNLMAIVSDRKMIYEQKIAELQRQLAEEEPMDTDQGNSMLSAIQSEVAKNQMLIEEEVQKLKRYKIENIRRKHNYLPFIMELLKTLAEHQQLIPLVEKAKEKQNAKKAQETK
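Signal – fluorescence, ex 355 nm, em 460 nm · System – Proteasome-bound UCH37 · Input – 0.15 nM proteasome as dispensed · Timing – 30 min preincubation with enzyme, 25 min cleavage at room temperature · Read-out basis – percent inhibition of cleavage signal versus uninhibited and no-proteasome wells · Medium – Tris-HCl pH 7.4 with ATP-MgCl2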
AF4-AF9 inh – MLL-AF4/AF9 protein interaction inhibition. P42568. AlphaScreen, biotin-AF4 peptide binding to FLAG-AF9. inhibition, % at 10 µM. 350,000 compounds, 0.47% hits. AID 651704;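 active means every replicate reaching a set inhibition limit, whatever the replicate mean, cut at about 25% in these data; inconclusive means mean inhibition reaches that limit but some replicates miss it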;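 further: 0% = plate neutral control median and 100% = total signal loss; the record names both 10 and 1 µM as test concentration; the first replicate is given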
Target sequence (P42568 whole entry, looked up): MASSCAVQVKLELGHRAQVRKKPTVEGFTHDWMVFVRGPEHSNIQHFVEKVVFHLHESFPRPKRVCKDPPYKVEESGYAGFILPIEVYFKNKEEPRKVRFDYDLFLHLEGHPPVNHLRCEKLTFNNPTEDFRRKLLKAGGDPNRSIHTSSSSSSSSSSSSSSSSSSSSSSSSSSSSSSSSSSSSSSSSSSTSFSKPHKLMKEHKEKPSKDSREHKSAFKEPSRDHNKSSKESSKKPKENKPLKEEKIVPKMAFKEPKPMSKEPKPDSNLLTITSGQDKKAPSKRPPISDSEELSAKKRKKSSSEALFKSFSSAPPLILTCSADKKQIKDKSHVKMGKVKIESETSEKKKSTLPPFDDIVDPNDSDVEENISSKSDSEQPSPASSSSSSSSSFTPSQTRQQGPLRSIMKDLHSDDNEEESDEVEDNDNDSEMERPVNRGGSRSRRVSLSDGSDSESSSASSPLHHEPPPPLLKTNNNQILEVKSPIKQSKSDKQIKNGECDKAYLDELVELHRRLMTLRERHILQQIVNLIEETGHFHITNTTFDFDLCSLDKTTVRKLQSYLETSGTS
Ecoli rRNA inh OD600 – further read-out of Ecoli rRNA inh, marked with its call; OD600 change, %; measured here: OD600 growth;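 optical density of the mix in the first replicate; 0 = DMSO median and -100 = no signal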
Ecoli rRNA inh RFP – also measured in Ecoli rRNA inh; calls as there; RFP signal change, %; measured here: RFP humanized mutant strains;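 first replicate; 0 = DMSO median and -100 = no signal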
* = called active by the depositor; i = inactive; ? = inconclusive; / = not tested or not shown.

SMILES	Ecoli growth	Beta cell apopt	T cruzi repl	A1 inh	FGF22 binding	Ecoli rRNA inh	Ecoli rRNA inh OD600	Ecoli rRNA inh RFP	UCH37 DUB inh	AF4-AF9 inh
Cc1cc(N2C(=O)C3C4CC(C(Br)C4Br)C3C2=O)no1 (centres undefined)	0.67	-2	-2	-0.5	i	13	7	-9.0	5.9	1.5
O=CC1=C(N2CCOCC2)/C(=C\c2ccccc2)CC1	0.71	-6	-15	0.0	i	12	1	7.5	12	?
CCC(c1nnnn1CCOC)N1CCN(Cc2ccccc2OC)CC1 (centres undefined)	0.76	0	9	-0.3	/	/	/	/	-0.9	/
Cc1ccc(CNCC(O)(c2ccccc2)c2ccc(F)cc2)cc1 (centres undefined)	0.64	3	17	0.0	/	/	/	/	2.4	/
COc1cc(C(=O)OCc2ccccc2C#N)ccc1OCC(=O)N1CCOCC1	0.69	0	/	-0.4	i	8	5	0.5	1.2	-1.2
Cc1ccc(CNC(=O)Cn2c(=O)n(-c3ccccc3)c(=O)c3sccc32)cc1	0.69	0	0	-0.3	i	10	9	1.4	1.3	-20
Oc1ccc(Br)cc1C1Nc2ccccc2S1 (centres undefined)	0.7	5	7	-5.3	i	12	16	-1.6	-6.2	-0.3
Cc1ccc(C2(C)NC(=O)N(CC(=O)Nc3ccc(N4CCOCC4)cc3N3CCOCC3)C2=O)cc1 (centres undefined)	/	0	4	0.0	i	2	-1	-1.3	/	3.5
O=C(NC1CCCCC1)c1ccc(-c2ccccc2)cc1	0.71	8	-10	-1.6	i	6	-1	-1.3	2.5	-1.5
CCOC(=O)c1[nH]ncc1CN1CCC(Cc2cccc(OC)c2)(C(=O)OCC)CC1	/	-4	0	-1.2	i	10	3	-7.2	/	-3.0
CCOC(=O)C1=CN(Cc2cccc(F)c2)S(=O)(=O)N(CC)C1c1cccc(OC)c1 (centres undefined)	0.74	/	/	/	i	16	8	-2.4	2.9	-5.8
CC1(C)COC(c2cccn2Cc2ccc(F)cc2Cl)=N1	0.72	-3	5	-0.7	/	/	/	/	6.3	/
Cn1cnc([N+](=O)[O-])c1S(=O)(=O)c1cccc(Cl)c1	0.68	-20	26	7.8*	i	3	-5	6.0	5.7	-0.5
COc1ccc(/C=C(\C#N)C(=O)Nc2cccc(C)n2)cc1	0.67	-4	-46	-6.9	i	8	12	-1.5	-6.5	-2.4
Cn1c(=O)n(C)c2cc(/C=N/NC(=O)c3cc4cc(Br)ccc4o3)ccc21	/	7	-31	0.8	i	8	-1	3.3	/	-2.2
Cc1nc(C(=O)NCC(=O)c2ccccc2)c(C(F)(F)F)o1	0.71	7	7	-0.6	i	6	1	0.8	3.2	0.4
COCCCNC(=S)Nc1ccc(C)cc1	0.67	-5	-2	0.1	i	/	/	/	-0.3	0.9
CC1CN(C(=O)Nc2cccc(C(F)(F)F)c2)CC(C)O1 (centres undefined)	0.65	/	9	-0.5	i	-58	-82	-22	4.4	-0.1
CCOC(=O)N1CCN(C(=O)c2cccc(NC3=NC4CS(=O)(=O)CC4S3)c2)CC1 (centres undefined)	0.67	-1	-8	1.2	/	/	/	/	0.6	/
Cc1ccc(C(=O)N2CCN(c3ccc(Cl)cc3)CC2)cc1	0.69	-9	-22	1.1	/	/	/	/	0.1	/
O=C(COC(=O)C1CCC(=O)N1)Nc1ccc(Br)cc1 (centres undefined)	0.71	-6	5	0.1	i	4	8	3.2	6.4	-9.8
C=CCCC(=O)N1CCC(n2nccc2NC(=O)c2ccc(OC)cc2)CC1	0.63	2	-23	-0.3	i	16	10	0.7	0.0	-3.2
O=C(NCCCCNC(=O)c1cccs1)c1cccs1	0.6	3	0	0.0	/	/	/	/	2.1	/
CCOc1ccc(CN(C)CC(=O)Nc2ccc3c(c2)CCC3)cc1OC	0.7	-5	48	0.1	i	-34	-54	3.0	4.0	-0.1
CCC(C)Nc1nc2ccccc2n2c(C)nnc12 (centres undefined)	0.68	15	2	0.8	i	6	4	-1.0	3.5	1.9
COC(C(=O)Nc1ccc(F)c(F)c1)c1ccccc1 (centres undefined)	0.72	-20	-1	1.2	/	/	/	/	0.6	/
CC1Cc2ccccc2N1C(=O)CN1C(=O)C(=O)N(Cc2ccccc2)C1=O (centres undefined)	0.67	-3	-2	0.6	/	/	/	/	1.0	/
Cn1cc(CCCC(=O)NCc2ccccc2)c2ccccc21	0.67	-5	8	0.0	i	-6	-12	2.4	-1.5	5.1
Cc1cc(C)cc(NC(=O)C2CCN(S(=O)(=O)c3c(C)n[nH]c3C)CC2)c1	0.73	-4	1	0.3	/	/	/	/	1.5	/
O=C(N/N=C/c1ccc([N+](=O)[O-])cc1)c1ccccc1OCc1ccccc1	/	-1	15	2.0	i	28	19	1.1	/	-0.7
Nc1cc(N)nc(SCC(=O)N2CCc3ccccc32)n1	0.68	1	-22	0.8	/	/	/	/	-1.6	/
CC(C)Cc1ccc(C(C)C(=O)Nc2nccs2)cc1 (centres undefined)	0.66	11	-15	0.5	i	0	-1	3.8	2.2	-49
CC(=O)Cc1nsc(NC(=O)c2oc(-c3ccccc3Cl)cc2C)n1	0.65	2	4	1.2	i	-15	-14	5.1	-11	?
COc1ccc(-c2nc(CS(=O)CC(=O)NCc3ccc(Cl)cc3)c(C)o2)cc1 (centres undefined)	0.79	-7	-8	1.2	i	-1	-12	13	1.2	-5.8
COc1ccc(-c2cc(C(=O)NCC(c3ccccc3)N(C)C)c3ccccc3n2)cc1OC (centres undefined)	0.69	8	21	1.2	i	-15	-28	5.8	-29	4.4
Cc1ccc(NC(=O)CN(C)S(=O)(=O)c2cccc3cccnc23)c(C)c1	0.67	-2	-9	0.6	i	-13	-11	-0.6	0.6	-2.1
COc1ccc(NC2=NCC(=O)N2Cc2cccs2)cc1	0.74	0	-13	0.9	/	/	/	/	-1.5	/
CCOC(=O)Cc1ccc(NC(=O)c2ccccc2Br)cc1	0.65	2	2	-1.2	i	2	4	-0.8	2.4	-1.0
COc1ccc(S(=O)(=O)N(C)C)cc1NC(=O)[C@H](Cc1ccccc1)N1C(=O)c2ccccc2C1=O	0.72	-4	-17	-0.2	/	/	/	/	5.6	/
CCN(C(C)=O)c1cccc2ccccc12	0.73	14	-10	0.7	/	/	/	/	1.1	/

Laid out differently: results already given.
Each structure is followed by: Ecoli growth | Beta cell apopt | T cruzi repl | A1 inh | FGF22 binding | Ecoli rRNA inh | Ecoli rRNA inh OD600 | Ecoli rRNA inh RFP | UCH37 DUB inh | AF4-AF9 inh
- COc1ccc(-c2nc(CS(=O)CC(=O)NCc3ccc(Cl)cc3)c(C)o2)cc1 (centres undefined)
 : 0.79 | -7 | -8 | 1.2 | i | -1 | -12 | 13 | 1.2 | -5.8
- CC(C)Cc1ccc(C(C)C(=O)Nc2nccs2)cc1 (centres undefined)
 : 0.66 | 11 | -15 | 0.5 | i | 0 | -1 | 3.8 | 2.2 | -49
- Cc1ccc(NC(=O)CN(C)S(=O)(=O)c2cccc3cccnc23)c(C)c1
 : 0.67 | -2 | -9 | 0.6 | i | -13 | -11 | -0.6 | 0.6 | -2.1

Further compounds follow:
SMILES	Ecoli growth	Beta cell apopt	T cruzi repl	A1 inh	FGF22 binding	Ecoli rRNA inh	Ecoli rRNA inh OD600	Ecoli rRNA inh RFP	UCH37 DUB inh	AF4-AF9 inh
O=C(CN1CCN(C(=O)c2ccccc2)CC1)Nc1ccc(Cl)cc1F	0.69	-1	0	0.2	i	5	14	-1.9	2.8	-1.6
Cn1c(SCC(=O)Nc2ccc(C(N)=O)cc2)nnc1-c1cccs1	0.66	-7	-7	0.1	i	5	10	-0.4	-3.0	-0.7
COc1ccc(-c2csc(N3CCC(C(N)=O)CC3)n2)cc1	0.63	-1	/	-0.5	i	-2	5	-0.5	0.8	4.5
NC(=O)COC(=O)CC12CC3CC(CC(C3)C1)C2	0.66	2	-5	-0.1	i	0	2	-2.0	-1.8	-1.1
O=C(CC1CCCC1)Nc1ccc(Br)cc1	0.65	1	-10	-0.6	i	-3	-20	15	5.1	-8.4
COc1cccc(NC(=O)c2ccc(N3C(=O)C4CC=C(C)CC4C3=O)cc2)c1 (centres undefined)	0.67	-6	-5	-0.4	i	-3	-9	-1.1	5.8	0.2
CCNc1nc(NC(C)(C)C)nc(SC(C(C)=O)C(C)=O)n1	0.73	/	22	0.6	/	/	/	/	1.2	/
CC1(C)COC(/C=C/c2cccc([N+](=O)[O-])c2)=N1	0.74	-52	-16	-0.6	i	9	16	-0.8	0.8	-0.5
CN(C)C(=O)CSc1nnc(-c2ccncc2)n1Cc1ccco1	0.67	0	-11	0.2	i	9	3	-1.4	-0.5	-1.5
CCc1cccc(NC(=O)Cn2c(=O)oc3cc(S(=O)(=O)N4CCOCC4)ccc32)c1	0.69	2	-7	-0.3	i	-2	1	-0.7	-0.4	-2.4
CCn1c(SCC(=O)c2c[nH]c3ccccc23)nnc1-c1cccs1	0.73	-1	10	0.5	/	/	/	/	5.2	/
COc1ccc(Cc2nnc(Nc3ccc(C)cc3)o2)cc1OC	0.62	0	20	0.4	i	-19*	-4.7*	0.3*	3.8	5.1
O=C(Cn1c(NCCCO)nc2ccccc21)c1ccc([N+](=O)[O-])cc1	0.69	4	1	0.1	i	7	9	-2.2	4.8	4.1
O=C(c1cscn1)N1CCCC(N2CCN(c3ccc(F)cc3)CC2)C1 (centres undefined)	0.68	-2	-19	0.1	i	6	16	-0.9	0.3	2.6
Cc1cc(C)c(NC(=O)Cn2c(=O)n(-c3ccc(CC(=O)NCC4CCCO4)cc3)c(=O)c3ccccc32)c(C)c1 (centres undefined)	/	-1	18	-0.1	i	3	2	2.7	/	-1.9
CCC(C)NCCCCOc1ccc(Br)cc1 (centres undefined)	0.65	/	16	0.4	i	13	-4	4.6	2.0	0.6
CC1CC(C)(C)NC(=S)N1CC(=O)N(C)Cc1ccccc1 (centres undefined)	0.65	0	-9	0.2	/	/	/	/	-0.5	/
CCN(CC(=O)Nc1cccc(OC)c1)C(=O)C1CCN(C(=O)Nc2ccccc2)CC1	0.68	-3	0	-0.3	/	/	/	/	0.9	/
Cc1ccc(NC(=O)CN(C)C(=O)COC(=O)/C=C/c2cccs2)cc1	0.61	-7	-12	0.0	i	19	11	1.2	0.9	-1.2
Cc1ccc2[nH]c(=O)c(-c3nc4cc(C)ccn4c3NCc3ccco3)cc2c1	0.75	12	25	-0.3	/	/	/	/	4.0	/
Cc1cccc(OCC(=O)Nc2ccc(N3CCN(C(=O)c4ccco4)CC3)cc2)c1	0.71	6	-18	-0.2	i	-20	-26	33	5.5	-72
CC(C)COc1ccc(-c2nnc(-c3ccco3)o2)cc1	0.63	6	0	-6.0	/	/	/	/	-17	/
COc1ccc(NC(=O)c2nnn(Cc3cccc(F)c3)c2N)c(OC)c1	0.73	11	-29	-0.3	i	8	11	-0.2	-22	-2.2
CC1CC(=O)Nc2ccccc2S1(=O)=O (centres undefined)	0.76	-5	-16	0.4	/	/	/	/	-4.2	/
COc1cccc(/C=C/C(=O)Nc2ccc(OC)nc2)c1	/	-8	12	1.1	/	/	/	/	2.3	/

Assay outcomes from PubChem.

This is a subset. The share of hits here may be higher or lower than overall.
